Screening data: PubChem, Broad Institute
A1 inhib = inhibitors of A1. caspase activation, % (concentration not given with the values). AID 2241. MEF A1-2A-BIM cells, caspase-Glo luminescence, 3 h; percent of clofoctol signal, DMSO as zero. 21,000 tested, 0.51% active;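 active = most replicate scores above 10, or exactly half above 10 with mean activity above 10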;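 also: effector caspase 3 and 7 activity cleaving a DEVD luciferin substrate; 50 nL library stock added to about 30 µL; numbers are from one replicate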
BJeLR viability = lowers viability of BJeLR cells. BJeLR fibroblasts viability, CellTiterGlo ATP luminescence, 48 h; HRASV12, hTERT and SV40 LT/ST transformed. viability loss activity score, % (no concentration beside the values). 30,000 tested, 0.64% active; in the data active = viability loss activity score above about 50%; about a fifth of its hits are not listed in these tables;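 also: higher score means fewer live cells and less ATP luminescence; stock transfer was 50 or 100 nL into about 30 µL; 0% = vehicle wells and 100% = a reference killing control; one replicate is shown; the record names a cut of 85%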
* hit, by the source's call; x = not tested or not shown.

SMILES | A1 inhib | BJeLR viability
O=c1c2nnn(Cc3ccc(F)cc3)c2ncn1Cc1ccc(F)cc1 | 1.4 | 9.5
Fc1ccc(-n2cc(-c3ccccc3)c3c(NCCC4=CCCCC4)ncnc32)cc1 | 0.8 | 0.1
O=C1CCc2cc(S(=O)(=O)NCCC(=O)NC3CCCCCCC3)ccc2N1 | x | 0.3
Cn1c(Sc2c3c(nc4ncnn24)CCC3)nnc1-c1ccccc1 | 0.5 | 23
Cc1noc(C)c1NC(=O)Nc1cccc2c1O[C@H](CN(C)C(=O)Nc1cccc3ccccc13)[C@@H](C)CN([C@H](C)CO)C2=O | x | 4.6
CCOC(=O)N1CCC(NC(=O)NCc2noc3ccccc23)CC1 | 0.5 | -4.6
O=C(NC12CC3CC(CC(C3)C1)C2)c1cccnc1 | -0.1 | -5.1
CSc1nc(N)c(C#N)cc1C#N | x | -5.7
C[C@@H]1CN([C@@H](C)CO)C(=O)c2cc(NC(=O)NC3CCCCC3)ccc2O[C@H]1CN(C)S(=O)(=O)c1cccs1 | 0.1 | -1.1
Cn1ccnc1Sc1cnc(SCc2ccc(Cl)cc2)nc1-c1ccccc1 | 0.1 | -1.8
CC1CCCCC1NC(=O)Cn1ncc2c(=O)oc3ccccc3c21 (stereo not given) | 1.1 | -8.9
O=c1nc2c(-c3ccc(Cl)cc3)n[nH]n2c2ccccc12 | -1.2 | -1.6
CC(=O)N1CCc2cc(NC(=S)NC3CCCCCC3)ccc21 | 0.6 | 0.7
COC(=O)c1ccc(COc2ccccc2OC)o1 | x | -2.5
O=C(CCN1CCc2ccccc2C(O)(c2ccccc2)C1)c1ccc2c(c1)OCCO2 (stereo not given) | x | -1.8
COc1ccc(S(=O)(=O)Nc2cccc3c2O[C@@H](CN(C)Cc2ccc(Oc4ccccc4)cc2)[C@@H](C)CN([C@H](C)CO)C3=O)cc1 | x | -7.5
CCC(C)C(=O)Nc1nccs1 (stereo not given) | 0.8 | -4.2
CC(C)NC(=O)Nc1ccc2c(c1)C(=O)N([C@@H](C)CO)C[C@@H](C)[C@@H](CN(C)CC1CCCCC1)O2 | -0.1 | 3.2
S=C(Nc1ccc(Cl)cc1)N1CCSC1c1ccc(Br)cc1 (stereo not given) | x | 1.0
C[C@H]1CN([C@@H](C)CO)C(=O)c2cc(NC(=O)c3ccncc3)ccc2O[C@@H]1CN(C)C(=O)Nc1cccc2ccccc12 | 0.9 | -0.6
C[C@@H]1CN([C@@H](C)CO)C(=O)c2cc(NC(=O)C3CC3)ccc2O[C@H]1CN(C)Cc1ccc2c(c1)OCO2 | 0.5 | -0.7
COc1ccc(CN(C)C[C@H]2Oc3ccc(NC(=O)C4CCCCC4)cc3C(=O)N([C@H](C)CO)C[C@H]2C)cc1 | 0.6 | 1.2
COC(=O)CN(Cc1ccccc1)S(=O)(=O)c1ccc(C)cc1 | 0.0 | 1.7
C[C@@H]1CN([C@@H](C)CO)C(=O)c2cc(NC(=O)C3CC3)ccc2O[C@@H]1CN(C)Cc1ccccc1 | 0.2 | 4.1
C[C@@H]1CN([C@H](C)CO)C(=O)c2cccc(NS(=O)(=O)c3ccc(F)cc3)c2O[C@H]1CN(C)CC1CC1 | x | 5.6

5 entries picked at random from the list so far, as already listed:
SMILES | A1 inhib | BJeLR viability
Cn1c(Sc2c3c(nc4ncnn24)CCC3)nnc1-c1ccccc1 | 0.5 | 23
CSc1nc(N)c(C#N)cc1C#N | x | -5.7
O=C(NC12CC3CC(CC(C3)C1)C2)c1cccnc1 | -0.1 | -5.1
CC(=O)N1CCc2cc(NC(=S)NC3CCCCCC3)ccc21 | 0.6 | 0.7
C[C@@H]1CN([C@@H](C)CO)C(=O)c2cc(NC(=O)C3CC3)ccc2O[C@H]1CN(C)Cc1ccc2c(c1)OCO2 | 0.5 | -0.7

The listing continues.
SMILES | A1 inhib | BJeLR viability
C[C@@H]1CN([C@H](C)CO)C(=O)c2cccc(NC(=O)c3cnccn3)c2O[C@H]1CN(C)S(=O)(=O)c1ccc(Cl)cc1 | x | -2.0
Cc1cccc(C(=O)Nc2nc3c(s2)C(=O)CC(C)(C)C3)c1 | -5.9 | -0.1
C[C@H](CO)N1C[C@H](C)[C@H](CN(C)S(=O)(=O)c2ccccc2)Oc2ccc(NC(=O)Nc3ccccc3)cc2C1=O | 0.5 | 0.7
C[C@H](CO)N1C[C@H](C)[C@@H](CN(C)Cc2ccc(Oc3ccccc3)cc2)Oc2c(NC(=O)C3CC3)cccc2C1=O | x | -0.9
C[C@H](CO)N1C[C@H](C)[C@@H](CN(C)Cc2ccncc2)Oc2c(NC(=O)c3ccc(-c4nccs4)cc3)cccc2C1=O | x | 0.4
C[C@@H]1CN([C@@H](C)CO)C(=O)c2cc(NS(C)(=O)=O)ccc2O[C@@H]1CN(C)C(=O)Nc1cccc2ccccc12 | 0.5 | 0.4
Cn1nc(SCC(=O)n2c3c(c4ccccc42)CCCC3)sc1=S | x | -1.8
O=C(Cc1ccc(Br)cc1)Nc1nccs1 | -0.4 | -4.5
CC(C)NC(=O)N(C)C[C@@H]1Oc2c(NC(=O)Nc3ccc(F)cc3)cccc2C(=O)N([C@@H](C)CO)C[C@H]1C | x | 2.4
C[C@H]1CN([C@@H](C)CO)C(=O)c2cc(NC(=O)Cc3ccccc3)ccc2O[C@@H]1CN(C)Cc1ccccc1 | 0.4 | 5.0
C[C@H]1CN([C@@H](C)CO)C(=O)c2cccc(NS(=O)(=O)c3cccs3)c2O[C@H]1CN(C)C(=O)NC1CCCCC1 | x | -1.2
CNC[C@@H]1Oc2c(NS(=O)(=O)c3cn(C)cn3)cccc2C(=O)N([C@@H](C)CO)C[C@H]1C | x | 3.6
COc1ccc(NC(=O)NC2c3ccccc3Oc3ccccc32)cc1OC | 0.5 | 2.5
Nc1ncnc2c1ncn2C1CCCO1 (stereo not given) | -0.2 | -2.8
COc1ccc(S(=O)(=O)Nc2ccc3c(c2)C(=O)N([C@@H](C)CO)C[C@H](C)[C@@H](CN(C)S(=O)(=O)c2ccccc2)O3)cc1 | -0.3 | -6.3
C[C@H]1CN([C@@H](C)CO)C(=O)c2cccc(NS(=O)(=O)c3cccs3)c2O[C@@H]1CN(C)C(=O)Nc1ccc2c(c1)OCO2 | x | -4.6
CN1CCN(NC(=O)CN2C(=O)S/C(=C/c3ccc(Cl)cc3)C2=O)CC1 | -0.1 | 0.9
COc1ccc(NC(=O)C2CCCN(S(=O)(=O)c3ccc(Br)s3)C2)cc1Cl (stereo not given) | x | 2.4
O=CNc1ncc(-c2nc3ccccc3[nH]2)s1 | -6.5 | 7.4
COc1ccc(C(=O)N(CCCCN2C(=O)c3ccccc3C2=O)c2ccc(C)cc2)cc1 | -0.5 | -0.6
CC1CCC2(C(=O)O)CCC3(C)C(=CCC4C5(C)C[C@@H](O)[C@@H](O)C(C)(CO)C5CCC43C)C2C1(C)O (stereo not given in full) | -0.6 | -7.0
O=c1[nH]c(-c2ccccc2)nnc1/C=C(\O)c1cccs1 | -3.5 | -0.5
N#Cc1cc2c(OCC(O)CN3CCN(C(c4ccccc4)c4ccccc4)CC3)cccc2[nH]1 (stereo not given) | -0.6 | 1.3
C=C[C@@]1(C)CCC2C(=CCC3[C@]2(C)CCC[C@@]3(C)C(=O)O)C1 (stereo not given in full) | 0.2 | 4.0
C[C@@H]1CN([C@@H](C)CO)C(=O)c2cc(NS(=O)(=O)c3cn(C)cn3)ccc2O[C@@H]1CN(C)C(=O)Nc1ccc(C(F)(F)F)cc1 | -0.1 | 7.2

Arranged by the number under A1 inhib (high to low): some entries from above
| mol | A1 inhib |
| --- | --- |
| C[C@H]1CN([C@@H](C)CO)C(=O)c2cc(NC(=O)c3ccncc3)ccc2O[C@@H]1CN(C)C(=O)Nc1cccc2ccccc12 | 0.9 |
| C[C@H]1CN([C@@H](C)CO)C(=O)c2cc(NC(=O)Cc3ccccc3)ccc2O[C@@H]1CN(C)Cc1ccccc1 | 0.4 |
| Cn1ccnc1Sc1cnc(SCc2ccc(Cl)cc2)nc1-c1ccccc1 | 0.1 |
| C[C@@H]1CN([C@@H](C)CO)C(=O)c2cc(NS(=O)(=O)c3cn(C)cn3)ccc2O[C@@H]1CN(C)C(=O)Nc1ccc(C(F)(F)F)cc1 | -0.1 |
| Nc1ncnc2c1ncn2C1CCCO1 (stereo not given) | -0.2 |
| O=CNc1ncc(-c2nc3ccccc3[nH]2)s1 | -6.5 |

Going on with the list.
SMILES | A1 inhib | BJeLR viability
CC(C)(C)NC(=O)CSc1nc2ccccc2nc1SCC(=O)NC(C)(C)C | -0.2 | -1.5
Cc1ccc(S(=O)(=O)Nc2ccc3c(c2)C(=O)N([C@H](C)CO)C[C@H](C)[C@H](CN(C)C(=O)Nc2ccc(F)cc2)O3)cc1 | -0.2 | -2.2
C=CCn1c(=S)sc2c(SCC(N)=O)ncnc21 | x | 7.0
CC(C)NC(=O)Nc1ccc2c(c1)C(=O)N([C@H](C)CO)C[C@H](C)[C@H](CN(C)S(=O)(=O)c1cccs1)O2 | 0.3 | 1.1
CC(=O)Nc1ccc2c(c1)C1C=CCC1C(c1cccc(Cl)c1Cl)N2 (stereo not given) | -0.7 | -2.0
NC(=Nc1cc(Cl)cc(Cl)c1)N1CCN(Cc2ccccc2)CC1 | 1.1 | 11
CC(=O)Nc1ccc(N=Cc2cccc3ccccc23)cc1 | -0.6 | 2.2
COc1ccc(S(=O)(=O)Nc2cccc3c2O[C@@H](CN(C)Cc2ccc(C(=O)O)cc2)[C@@H](C)CN([C@H](C)CO)C3=O)cc1 | x | 1.6
C[C@H]1CN([C@@H](C)CO)C(=O)c2cc(NC(=O)C3CC3)ccc2O[C@H]1CN(C)Cc1ccc(-c2ccccc2)cc1 | 0.0 | -2.0
Oc1ccccc1CNc1ccc(C2CCCCC2)cc1 | x | 0.1
CC(C)/C=C1\CC/C(=C\c2ccc(N(C)C)cc2)C1=O | x | 0.7
CC(C)Cn1c(CN(Cc2ccccc2)Cc2ccccc2)nc2c1c(=O)[nH]c(=O)n2C | 0.7 | 0.8
COC(=O)CSc1nc(C)nc2c1c(=O)n(C)c(=O)n2C | x | 4.1
COc1ccc(-n2cc(-c3ccccc3)nc2SCC(=O)c2ccccc2)cc1 | 1.5 | -1.5
CCOC(=O)N1CCC(n2c(SCC(=O)c3ccccc3)nc3ccccc3c2=O)CC1 | -0.3 | 2.1
COc1ccc(Br)cc1/C=C/C(=O)NCC(=O)O | 0.2 | -1.0
Fc1cccc(NC(=S)NCc2ccc3c(c2)OCO3)c1 | 0.0 | 0.0
Cc1cc(C)c(C#N)c(SCc2cc(=O)[nH][nH]2)n1 | 0.4 | -5.4
Cc1noc(C)c1NC(=O)N(C)C[C@H]1Oc2ccc(NC(=O)Cn3cnnn3)cc2C(=O)N([C@H](C)CO)C[C@@H]1C | -0.6 | 0.2
O=C1C(Nc2ccccc2)=CC(=O)c2ncccc21 | -0.8 | 69*
C[C@@H]1CN([C@@H](C)CO)C(=O)c2cc(NC(=O)CCCN(C)C)ccc2O[C@@H]1CN(C)C(=O)Nc1ccc2c(c1)OCO2 | 0.7 | 2.8
C[C@H](CO)N1C[C@H](C)[C@@H](CN(C)Cc2ccc(-c3ccccc3)cc2)Oc2ccc(NS(=O)(=O)c3ccc(Cl)cc3)cc2C1=O | -0.7 | 0.2
COc1ccc(-c2nn(-c3ccccc3)cc2/C=N/O)cc1 | 0.1 | 3.3
C[C@@H]1CN([C@H](C)CO)C(=O)c2cccc(NC(=O)c3ccc(-c4nccs4)cc3)c2O[C@H]1CN(C)C(=O)Nc1ccccc1 | x | -4.5
COc1ccc(NC(=O)N(C)C[C@H]2Oc3c(NS(=O)(=O)c4cccs4)cccc3C(=O)N([C@@H](C)CO)C[C@H]2C)cc1 | x | -1.1

New compounds follow
SMILES | A1 inhib | BJeLR viability
Cn1nc(CC(=O)Nc2nc(-c3ccccc3)cs2)c2ccccc2c1=O | -1.2 | 7.7
COC(=O)c1ccc(Oc2nc(Nc3ccccc3F)nc(N3CCCCC3C)n2)cc1 (stereo not given) | 1.1 | -3.2
COc1ccc(NC(=O)Nc2cccc3c2O[C@@H](CN(C)C(=O)Nc2ccc(C(F)(F)F)cc2)[C@@H](C)CN([C@@H](C)CO)C3=O)cc1 | x | -11
O=C(NC(Cc1cc(=O)[nH]c2ccccc12)C(=O)O)c1ccc(Cl)cc1 (stereo not given) | 0.3 | 0.5
C[C@H](CO)N1C[C@H](C)[C@H](CN(C)C)Oc2ccc(N(C)C)cc2C1=O | -0.2 | 0.7
Cc1nc2c(o1)N(c1ccccc1)C(N)=C(C#N)C2c1c(Cl)nn(-c2ccccc2)c1C (stereo not given) | -0.4 | -4.9
Cc1noc(C)c1S(=O)(=O)Nc1cccc2c1O[C@@H](CN(C)Cc1ccc(Cl)c(Cl)c1)[C@@H](C)CN([C@H](C)CO)C2=O | x | 6.3
Cc1cccc(CCNC(=O)c2cc3c(=O)n(C)c4ccccc4c3s2)c1 | x | 0.3
Cc1nc2cc(NC(=O)c3ccc(N4C(=O)CCC4=O)cc3)ccc2s1 | 0.1 | -2.4
COc1ccc(NC(=O)Nc2cccc3c2O[C@@H](CN(C)C(=O)NC2CCCCC2)[C@H](C)CN([C@H](C)CO)C3=O)cc1 | x | 0.1
COc1ccc(CN(C)C[C@@H]2Oc3ccc(NC(=O)C4CCCCC4)cc3C(=O)N([C@@H](C)CO)C[C@@H]2C)cc1 | -0.3 | -1.4
Cc1ccc2[nH]c(=O)c(C3=NN(C(=O)CCC(=O)O)C(c4ccccc4)C3)c(-c3ccccc3)c2c1 (stereo not given) | 0.5 | 7.5
Cc1cc(C(F)(F)F)nn1Cc1ccc(C(=O)Nc2ncc(Br)s2)o1 | x | 5.8
C[C@@H]1CN([C@@H](C)CO)C(=O)c2cccc(NC(=O)C3CCOCC3)c2O[C@H]1CN(C)Cc1ccc(-c2ccccc2)cc1 | x | -0.4
Cc1ccc(/C=N/N2CCN(Cc3ccccc3)CC2)cc1 | 0.2 | -0.6

These rows are one share of the data; the hit share may differ from the screen's.
